Compound activity as filed in PubChem.
Ecoli rRNA inh – inhibits bacterial ribosomal RNA function over humanized ribosomes. 350,000 compounds, 1.6% hits. GFP signal change (wild-type ribosome), % (concentration not given with the values). AID 720706. E. coli WT GFP vs humanized-ribosome RFP mutants, fluorescence, 24 h; active compounds read low; DMSO median 0, no signal -100;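 active = significant combined selectivity score with lowered wild-type GFP, culture density cut under 30%, mutant RFP and density less affected; inactive = any of these conditions unmet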; note: one replicate is shown; some compounds called inactive have numbers as strong as hits
Calb FLC – C. albicans growth modulation with fluconazole | C. albicans CaCi-2 (fluconazole-resistant clinical isolate) + fluconazole, Alamar Blue growth, 48 h | growth inhibition, % (concentration not given with the values) | 300,000 compounds, 0.57% hits;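 active = most replicates above 75%; inconclusive = exactly half above 75%; inactive = most below 75%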;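 note: all wells also contain fluconazole at 8 µg/ml as a sub-toxic cotreatment; 0% = median of DMSO wells and 100% = median of geldanamycin control wells; wells of about 8 µL received 7.5 nL stock; the first replicate is given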
RanGTP-Imp inh – disruptors of Ran-importin-beta complex formation – biochemical, FRET, CFP-Ran, YFP-importin-beta, homogeneous, primary screen. cell-free CFP-Ran/YFP-importin-beta FRET ratio. inhibition, % (test concentration not listed). 300,000 compounds, 1.1% hits;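 active = most replicates above 15%; inconclusive = exactly half above 15%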;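 note: 0% = DMSO wells and 100% = Ran loaded with GDP instead of GTP; wells of about 40 µL received 100 nL stock; the first replicate is given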
FGF22 binding – FGF22 (human) thermal shift binding. Q9HCT0. recombinant FGF22 thermal shift, SYPRO orange fluorescence; percent of sucrose octasulfate shift, DMSO zero. calls only at 9.99 µM. 340,000 compounds, 1.5% hits. AID 651658;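 active = melting point raised past a set limit in the mean and every replicate; inconclusive = no clear call; three in four hits are not shown here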
Target sequence (Q9HCT0 whole entry, looked up): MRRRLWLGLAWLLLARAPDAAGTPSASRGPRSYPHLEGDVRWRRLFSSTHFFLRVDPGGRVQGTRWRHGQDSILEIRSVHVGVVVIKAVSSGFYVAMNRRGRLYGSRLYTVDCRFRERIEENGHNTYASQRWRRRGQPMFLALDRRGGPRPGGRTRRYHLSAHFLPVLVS
AF4-AF9 inh – blocks AF4 peptide binding to human AF9. P42568. AlphaScreen, biotin-AF4 peptide binding to FLAG-AF9. inhibition, % at 10 µM. 350,000 compounds, 0.47% hits. AID 651704;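 active = every replicate reaching a set inhibition limit, whatever the replicate mean, cut at about 25% in these data; inconclusive = mean inhibition reaches that limit but some replicates miss it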;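 note: 0% = plate neutral control median and 100% = total signal loss; the record names both 10 and 1 µM as test concentration; the first replicate is given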
Target sequence (P42568 whole entry, looked up): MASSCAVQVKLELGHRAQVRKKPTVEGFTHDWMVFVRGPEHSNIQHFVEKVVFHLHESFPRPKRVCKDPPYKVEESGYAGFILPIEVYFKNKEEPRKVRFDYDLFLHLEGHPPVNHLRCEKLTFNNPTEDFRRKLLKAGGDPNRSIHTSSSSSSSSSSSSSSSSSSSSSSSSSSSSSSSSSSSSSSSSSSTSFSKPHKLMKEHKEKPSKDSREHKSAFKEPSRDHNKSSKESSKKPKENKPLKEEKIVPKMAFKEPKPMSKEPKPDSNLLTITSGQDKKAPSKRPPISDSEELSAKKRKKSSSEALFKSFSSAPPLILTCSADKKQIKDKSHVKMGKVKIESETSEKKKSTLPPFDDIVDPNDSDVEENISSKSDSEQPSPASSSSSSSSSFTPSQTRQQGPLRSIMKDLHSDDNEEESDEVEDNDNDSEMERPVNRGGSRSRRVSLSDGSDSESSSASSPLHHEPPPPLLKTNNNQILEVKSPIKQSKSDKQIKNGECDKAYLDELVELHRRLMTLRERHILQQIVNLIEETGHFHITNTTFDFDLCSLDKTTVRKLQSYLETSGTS
T cruzi inh – T. cruzi replication inhibition. 300,000 compounds, 1.4% hits. inhibition, % (test concentration not listed). T. cruzi beta-gal in NIH3T3, luminescence, 90 h;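 active = mean inhibition across valid replicates above about 55%, limit read from the data; inconclusive = mean below that limit but half or more replicates reach it; inactive = mean below it, under half of replicates reach it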;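 note: signal also drops with host cell toxicity which is not excluded here; 0% = plate median of DMSO wells and 100% = zero luminescence signal; higher percent means less beta-gal luminescence so fewer parasites; stock transfer was 50 nL into about 50 µL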
Beta cell apopt – beta cell apoptosis inhibition | protection from apoptosis, % (concentration not given with the values) | 300,000 compounds, 0.8% hits | INS-1E cytokine-induced death, ATP luminescence, 48 h; percent of positive-control rescue, neutral wells zero | AID 435005;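 active = all replicates at 75% or more, or half of them and the mean; inconclusive = half reach 75% but not the mean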;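 note: 0% = cytokine-treated negative control wells and 100% = positive control rescue; higher means more ATP so stronger rescue from cytokine killing; wells of about 40 µL received 100 nL stock; the first replicate is given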
ALR H2O2 inh – inhibitors of human sulfhydryl oxidase ALR; P55789; purified ALR, DTT oxidation, H2O2 HRP-luminol luminescence; inhibition, % (test concentration not listed); 290,000 compounds, 3.8% hits; AID 485317;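 active = mean and each replicate at 75% or more; inconclusive = only one of the two met; inactive = neither met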;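 note: stock transfer was 7.5 nL into about 7.5 µL; 0% = neutral wells and 100% = wells with inactivated enzyme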
Target sequence (P55789 whole entry, looked up): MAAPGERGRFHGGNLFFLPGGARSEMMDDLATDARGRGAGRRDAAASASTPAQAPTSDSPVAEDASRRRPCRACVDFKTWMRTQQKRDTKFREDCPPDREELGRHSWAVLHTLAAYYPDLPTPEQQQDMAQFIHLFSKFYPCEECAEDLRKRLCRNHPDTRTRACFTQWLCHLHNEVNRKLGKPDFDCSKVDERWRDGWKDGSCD
Ecoli rRNA inh OD600 – further read-out of Ecoli rRNA inh, marked with its call; OD600 change, %; measured here: OD600 growth;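 optical density of the mix in the first replicate; 0 = DMSO median and -100 = no signal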
Ecoli rRNA inh RFP – further read-out of Ecoli rRNA inh, marked with its call; RFP signal change, %; measured here: RFP humanized mutant strains;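 first replicate; 0 = DMSO median and -100 = no signal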
Starred values were filed as active, the others as inactive; i = inactive; ? = inconclusive; . = no result given; & = joins results of further samples.

Compound | Ecoli rRNA inh RFP | Ecoli rRNA inh OD600 | ALR H2O2 inh | Calb FLC | Ecoli rRNA inh | FGF22 binding | RanGTP-Imp inh | AF4-AF9 inh | T cruzi inh | Beta cell apopt
O=C(COC(=O)Cc1ccc(F)cc1)NC1CCCCC1 | . | . | 4 | . | . | i | . | -1.4 | . | -3
O=C(CCc1ccc(S(=O)(=O)NCc2ccccc2)cc1)NCc1cccnc1 | -7.5 | -1 | 0 | 27 | 1 | i | 0.3 | -8.1 | -8 | 1
CC(C)c1ccc(NC(=O)c2sccc2-n2cccc2)cc1 | -2.3 | -2 | 1 | -9 | -2 | i | 3.6 | 4.4 | 34 | 1
COc1ccc2oc(=O)c(-c3nnc(N)s3)cc2c1 | 5.1 | 15 | -9 | -4 | 9 | i | -22 | -2.9 | -8 | 7
N=c1c(S(=O)(=O)c2ccc(F)cc2)cc2c(=O)n3ccccc3nc2n1CC1CCCO1 (centres undefined) | 0.3 | 7 | -4 | -5 | 12 | i | 175* | 1.7 | 10 | .
C/C(=N\NC(=O)c1cccs1)c1ccc2ccccc2c1 | 1.7 | 14 | -9 | -5 | 18 | i | 3.7 | -2.2 | -3 | -2
Cc1ccccc1C(OCCN(C)C)c1ccccc1 (centres undefined) | -2.7&0.1 | 3&4 | 4 | . | 7&11 | i | 1.1 | 2.1&0.7 | 14 | -4
COC(=O)CNC(=O)Cn1cnc2sc(C)c(S(=O)(=O)N3CCN(c4ccccc4OC)CC3)c2c1=O | -0.4 | 12 | 0 | -2 | 10 | i | -2.7 | 1.5 | -4 | -3
O=C(CSc1nc2ccccc2[nH]1)Nc1c(F)c(F)c(F)c(F)c1F | 1.9 | -23 | 29 | -13 | -23 | . | -1.8 | -0.1 | 10 | -1
O=C(CNC(=O)c1ccccc1)OCCCOC(=O)CNC(=O)c1ccccc1 | 0.1 | 9 | 3 | -14 | 14 | i | -1.6 | -1.2 | 2 | -2
CC1(CC(=O)N/N=C/c2ccc(-c3ccc(Cl)cc3)o2)OCCO1 | . | . | 27 | 2 | . | i | 4.5 | 2.3 | 6 | -5
O=C1NCCN1Cc1ccccc1 | . | . | -5 | -13 | . | . | -2.3 | . | -5 | -1
Cc1cccc(-n2nc3c(c2NC(=O)c2ccc(Br)o2)CSC3)c1 | 6.4 | 3 | . | ? | -9 | i | -1.9 | -58 | 23 | 0
Cc1ccccc1-c1cnn(-c2cccc([N+](=O)[O-])c2)c1N | -12* | -36* | 23 | 6 | -46* | i | -1.5 | 8.2 | 8 | 0
Nc1ccc(C#Cc2ccc3oc4ccccc4c(=O)c3c2)cc1 | -5.5 | 3 | -20 | -20 | -7 | i | -3.0 | 2.9 | 3 | -2
CCCn1nnc(NC(=O)c2ccc3ccccc3c2)n1 | -5.2 | -13 | -2 | 4 | -18 | i | -1.6 | -1.5 | -6 | 6
CCOC(=O)c1cnc2c(N=Nc3ccccc3)c(N)nn2c1N | . | . | -4 | 26 | . | . | 1.6 | . | 18 | 7
COc1ccc(CNC(=O)COC(=O)C2(C)CC2(Cl)Cl)cc1 (centres undefined) | -3.4 | -8 | 2 | . | -3 | i | . | -3.4 | . | 0
O=C1NC(c2ccccc2)=C(c2ccc3ccccc3n2)C(c2ccccc2)N1 (centres undefined) | 0.4 | -14 | 2 | -1 | -6 | i | -0.7 | 15 | 10 | 7
Cc1cccc(NC(=O)CCN2CCC(C)CC2)c1 | 3.7 | 1 | -2 | -14 | 9 | i | -0.2 | 1.5 | -17 | -2

Some entries already given, reduced to ALR H2O2 inh:
Compound	ALR H2O2 inh
Cc1ccccc1C(OCCN(C)C)c1ccccc1 (centres undefined)	4
O=C1NCCN1Cc1ccccc1	-5

(list continues)
Compound | Ecoli rRNA inh RFP | Ecoli rRNA inh OD600 | ALR H2O2 inh | Calb FLC | Ecoli rRNA inh | FGF22 binding | RanGTP-Imp inh | AF4-AF9 inh | T cruzi inh | Beta cell apopt
Cc1cc(C)n(C(=O)CSc2ccc(Cl)cc2)n1 | . | . | -8 | -4 | . | . | -1.3 | . | -5 | 3
CCCCNC(=O)c1cc2cccc([N+](=O)[O-])c2[nH]1 | . | . | 0 | 24 | . | i | 1.3 | 0.5 | -1 | 0
COc1cc(/C=C/C(=O)Nc2ccncc2)cc(OC)c1OC | . | . | 85* | -7 | . | . | -1.6 | . | 25 | 1
Cc1ccc(CNC(=O)C2CCC(=O)N2CCc2ccccc2)cc1 (centres undefined) | . | . | -7 | -29 | . | . | -0.3 | . | -14 | -3
Cc1cccc(Nc2nc(N)nc(CN3CCN(Cc4ccc5c(c4)OCO5)CC3)n2)c1 | . | . | -3 | -1 | . | . | 0.3 | . | -3 | 2
O=C(Oc1nsnc1N1CCCCC1)N1CCOCC1 | . | . | -10 | 0 | . | . | 2.6 | . | -2 | -2
Cc1noc(C)c1CSc1nc2ccccc2n1C | . | . | -17 | 44 | . | . | 0.7 | . | -1 | -3
CCCc1[nH]nc2c1C(CCc1ccccc1)C(C#N)=C(N)O2 (centres undefined) | . | . | 10 | 1 | . | . | ? | . | -12 | 0
CN1CCN(c2ccccc2NC(=O)Cn2ncc3c([nH]c4ccccc43)c2=O)CC1 | 2.0 | -2 | -3 | 1 | 1 | i | 6.6 | -9.8 | 2 | -12
Cn1cc(Cl)c(/C=C(\C#N)S(=O)(=O)c2ccccc2)n1 | 1.0 | 6 | 6 | -4 | 11 | i | 2.7 | -1.6 | 3 | -6
Cc1cc(OCC(=O)NCCCN2CCOCC2)c2c(C)cc(=O)oc2c1 | -0.9 | 10 | -1 | . | 1 | i | -2.0 | -8.2 | -3 | -5
COc1ccc(/C(O)=C2/C(=O)C(=O)N(CCCC(=O)O)C2c2ccc(OC)c(OC)c2)cc1 (centres undefined) | . | . | -10 | -2 | . | . | 26 | . | -4 | 8
NC(=O)c1coc(-c2ccccc2)n1 | 2.4 | 13 | -5 | -9 | 19 | i | 0.3 | 1.1 | 4 | -4
COc1cccc(N(CC(=O)NC2CCCCCC2)S(=O)(=O)c2ccccc2)c1 | -0.5 | 2 | -8 | 5 | -1 | i | -2.7 | -1.2 | 21 | .
COc1ccc(NC(C)=O)cc1CNC(=O)COc1c(C)c(C)cc(C)c1C | -16 | 2 | -1 | 11 | -5 | i | -3.4 | -2.6 | 4 | 3
Cc1sc2ncn(CC(=O)NCc3ccco3)c(=O)c2c1-c1ccccc1 | -2.3 | 0 | 0 | -3 | 1 | i | -0.5 | -0.6 | -16 | 2
O=C(N/N=C/c1cccnc1)c1cc(-c2ccccc2OCc2ccccc2)n[nH]1 | 3.9 | 4 | -4 | -10 | 7 | i | 8.6 | -7.4 | 5 | 1
COCCOC(=O)C1=C(C)OC(N)=C(C#N)C1c1ccco1 (centres undefined) | . | . | 6 | 4 | . | . | ? | . | -20 | -3
CCNC(=S)N(Cc1ccc(OC)cc1)C1CC(=O)N(c2ccc(OCC)cc2)C1=O (centres undefined) | . | . | -2 | -5 | . | . | ? | . | 21 | 1
Fc1ccc(Oc2cc(N3CCOCC3)nc(-c3ccccc3)n2)c(F)c1 | . | . | . | -4 | . | . | 0.5 | . | 27 | -11
O=Cc1ccccc1OCc1nnsc1Cl | 0.8 | 6 | 11 | -15 | 11 | i | 2.1 | -0.2 | -12 | -8
CCCCOC(=O)Nc1ccc(C(C)C)cc1 | . | . | 2 | -7 | . | . | 1.2 | . | 25 | -2
CC(NC(=O)c1cc2c(=O)n(C)c3ccccc3c2n1C)c1ccc2c(c1)OCCO2 (centres undefined) | 6.5 | -17 | 26 | 15 | -7 | i | -0.6 | 2.0 | 15 | 4
O=C(NCCc1ccccc1)c1coc(=O)c(Br)c1 | -2.6 | 4 | -9 | 0 | 8 | i | ? | -5.5 | -24 | 32
Cc1nn(CC(=O)N2CCN(c3cccc(C(F)(F)F)c3)CC2)c(=O)c2cccn12 | 3.1 | 6 | -3 | -8 | 1 | i | 1.1 | -4.3 | -4 | .
Cc1c(NC(=O)c2n[nH]c(=O)c3ccccc23)c(=O)n(-c2ccccc2)n1C | . | . | -4 | 1 | . | . | -1.9 | . | -4 | -3
O=C(CO)N/N=C/c1ccccc1F | -4.3 | 1 | . | ? | -1 | i | 0.5 | 0.2 | 4 | -1
CC(NC(=O)c1cc(F)c(F)cc1Cl)C1CC2CCC1C2 (centres undefined) | 0.1 | 4 | -2 | -15 | 4 | i | 1.4 | -1.0 | -5 | 2
CN(C(=O)COC(=O)c1cc(S(=O)(=O)N(C)C)ccc1Cl)C1CCS(=O)(=O)C1 (centres undefined) | -4.2 | 3 | -5 | -2 | 1 | i | -2.7 | -2.7 | -4 | .

Structural class, the compounds so far containing an aryl methoxy group (eight)
Compound | Ecoli rRNA inh RFP | Ecoli rRNA inh OD600 | ALR H2O2 inh | Calb FLC | Ecoli rRNA inh | FGF22 binding | RanGTP-Imp inh | AF4-AF9 inh | T cruzi inh | Beta cell apopt
COc1ccc2oc(=O)c(-c3nnc(N)s3)cc2c1 | 5.1 | 15 | -9 | -4 | 9 | i | -22 | -2.9 | -8 | 7
COC(=O)CNC(=O)Cn1cnc2sc(C)c(S(=O)(=O)N3CCN(c4ccccc4OC)CC3)c2c1=O | -0.4 | 12 | 0 | -2 | 10 | i | -2.7 | 1.5 | -4 | -3
COc1ccc(CNC(=O)COC(=O)C2(C)CC2(Cl)Cl)cc1 (centres undefined) | -3.4 | -8 | 2 | . | -3 | i | . | -3.4 | . | 0
COc1cc(/C=C/C(=O)Nc2ccncc2)cc(OC)c1OC | . | . | 85* | -7 | . | . | -1.6 | . | 25 | 1
COc1ccc(/C(O)=C2/C(=O)C(=O)N(CCCC(=O)O)C2c2ccc(OC)c(OC)c2)cc1 (centres undefined) | . | . | -10 | -2 | . | . | 26 | . | -4 | 8
COc1cccc(N(CC(=O)NC2CCCCCC2)S(=O)(=O)c2ccccc2)c1 | -0.5 | 2 | -8 | 5 | -1 | i | -2.7 | -1.2 | 21 | .
COc1ccc(NC(C)=O)cc1CNC(=O)COc1c(C)c(C)cc(C)c1C | -16 | 2 | -1 | 11 | -5 | i | -3.4 | -2.6 | 4 | 3
CCNC(=S)N(Cc1ccc(OC)cc1)C1CC(=O)N(c2ccc(OCC)cc2)C1=O (centres undefined) | . | . | -2 | -5 | . | . | ? | . | 21 | 1

Not all compounds are listed (hit frequency here may not be typical).
